FEN1 inhibitor – blocks human flap endonuclease 1 | hit rate 0.35% among 390,000 | Recombinant FEN1 flap cleavage, fluorescence, 15 min | AID 588795 | Potency, µM (highest dose often 114 µM), for inactives: at the highest dose activity change, negative = inhibition, usual class: inhibitors; also: nearly all actives have a fitted effect of over 65% in size
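Enzyme 10 nM, 15 min RT preincubation with compound; start with substrate 50 nM final; reads at 0 and 15 min; qHTS titration, four-parameter Hill fit.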
KAT2A inh – inhibitors of human GCN5L2 histone acetyltransferase; Q92830; hit rate 0.21% among 390,000; GCN5L2 HAT assay, ThioGlo1 CoA-SH fluorescence; AID 504327; Potency, µM (top dose mostly 58.9 µM), inactives show at the highest dose activity change, negative = inhibition, most hits filed as inhibitors
Target sequence (Q92830 whole entry, looked up): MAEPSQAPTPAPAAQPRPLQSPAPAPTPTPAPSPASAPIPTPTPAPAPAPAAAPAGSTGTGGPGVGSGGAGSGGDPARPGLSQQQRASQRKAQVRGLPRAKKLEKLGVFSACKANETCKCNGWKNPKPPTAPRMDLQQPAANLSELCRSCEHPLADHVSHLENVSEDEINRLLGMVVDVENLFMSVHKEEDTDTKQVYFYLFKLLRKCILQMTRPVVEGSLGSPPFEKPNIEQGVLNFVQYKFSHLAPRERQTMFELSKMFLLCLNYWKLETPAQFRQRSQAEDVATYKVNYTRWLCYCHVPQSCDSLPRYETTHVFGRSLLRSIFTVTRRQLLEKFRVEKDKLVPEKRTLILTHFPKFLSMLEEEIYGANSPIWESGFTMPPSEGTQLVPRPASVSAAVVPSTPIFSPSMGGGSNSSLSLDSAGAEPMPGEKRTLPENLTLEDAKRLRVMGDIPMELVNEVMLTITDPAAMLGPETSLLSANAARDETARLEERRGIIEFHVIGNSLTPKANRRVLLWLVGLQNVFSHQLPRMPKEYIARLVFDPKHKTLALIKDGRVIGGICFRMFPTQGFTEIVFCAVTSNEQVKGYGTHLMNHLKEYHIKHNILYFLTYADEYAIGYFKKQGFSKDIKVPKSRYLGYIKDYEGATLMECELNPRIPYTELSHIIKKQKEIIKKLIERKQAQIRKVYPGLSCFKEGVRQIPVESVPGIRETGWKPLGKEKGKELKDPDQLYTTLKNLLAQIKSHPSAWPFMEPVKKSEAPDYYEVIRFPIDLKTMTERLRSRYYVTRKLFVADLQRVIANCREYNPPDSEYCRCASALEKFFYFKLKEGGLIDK
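Compounds, pin-transferred from DMSO stocks, meet 20nM GCN5L2 for 15 min before the reaction begins with H3(1-25) peptide (75uM) and acetyl-CoA (70uM). Thiol-reactive ThioGlo1 reports CoA release over 20 min at room temperature.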
Active calls of the source: *; ? = inconclusive; nt = no result given; & = joins results of further samples; [ ] = remark or other dose. Calls follow the shape of the dose curve; as a rule, active = well fitted curve in the direction sought with a large enough effect; inconclusive = small, poorly fitted or top-dose-only effect, or another doubt; inactive = no such curve, though single readings can be large; an effect the other way counts as inactive or inconclusive. % is scaled to controls: 0 for no effect and ±100 for the full control effect; potency is read from the fitted curve at half-maximal effect.

FEN1 inhibitor	KAT2A inh	canonical_smiles
14.4%	-0.3%	COc1ccccc1N1CCN(Cc2nc(N)nc(Nc3ccc(C)cc3)n2)CC1
-5.9%	?	CC(C(=O)NC1CCCC1)N1CCN(S(=O)(=O)c2ccccc2Cl)CC1 (configuration not stated)
-7.7%	-7.0%	COc1ccc(CNC(=O)c2nnn(-c3cccc(C(F)(F)F)c3)c2N)cc1
-1.4%	-21.5%	COC(=O)CN1C(=O)[C@H]2[C@@H](/C=C/c3ccccc3)N3C(=O)CN(Cc4ccccc4)C(=O)[C@@]3(C)[C@H]2C1=O
-3.2%	0.4%	COc1cccc(OC)c1C(=O)Nc1ccc(C(=O)c2ccncc2)cc1
2.3%	0.3%	CCOc1ccc(C(C(=O)NC2CCCC2)N(C(=O)CNC(=O)c2ccco2)c2cccnc2)cc1 (configuration not stated)
6.6%	-0.8%	O=C(Cc1ccc(Br)cc1)NC1CCCc2ccccc21 (configuration not stated)
-7.2%	-1.2%	CCOc1cc(CN2CCN(Cc3ccc(C)o3)C(CCO)C2)ccc1OC (configuration not stated)
4.3%	0.7%	COCCn1c(SCC(=O)Nc2cc(C)nn2-c2ccccc2)nnc1-c1ccncc1
-11.8%	-0.8%	COc1ccc2oc(C(=O)OCC(=O)NC3CCCC3)c(C)c2c1
2.9%	3.0%	OC(COCc1ccc2c(c1)OCO2)CN1CCN(Cc2ccccc2)CC1 (configuration not stated)
13.5%	-0.5%	O=C(Nc1ccc(-c2nc3ccccc3o2)cc1)c1ccc(N2CCOCC2)c([N+](=O)[O-])c1
-7.6%	-4.8%	COCC(C)NC(=O)NC1(C(F)(F)F)Oc2ccc(Cl)cc2O1 (configuration not stated)
5.3%	0.9%	O=C(CNC(=O)c1cccs1)Nc1ccc2c(c1)OCCO2
5.7%	-4.1%	COc1ccc(CC(=O)n2[nH]c(=O)cc(C)c2=O)cc1OC

Next section
FEN1 inhibitor	KAT2A inh	canonical_smiles
-9.7%	-2.1%	O=C(CSc1nc2ccccc2c(=O)n1CC1CCCO1)NCc1ccccc1 (configuration not stated)
-5.7%	-12.2%	COc1ccc(Cl)cc1C(=O)N(Cc1nc(-c2cccc(C)c2)no1)C(C)C
-1.7%	-1.4%	Cc1ccc([N+](=O)[O-])cc1S(=O)(=O)Nc1ccc(-c2ccc(N3CCOCC3)nn2)cc1
-1.3%	-14.5%	CCOC(=O)C1CCN(C(=O)C2CCCN2S(=O)(=O)c2ccc(Cl)cc2)CC1 (configuration not stated)
1.9%	-19.0%	COc1ccccc1C(=O)C1CCCN(C(=O)c2snnc2C)C1 (configuration not stated)
14.8%	-16.6%	CCCCCn1cnc2c(=S)nc(N)[nH]c21
-7.9%	-0.1%	CC(=O)c1cccc(NC(=S)NC(=O)CC(C)(C)C)c1
-9.2%	-3.2%	COc1ccc(NS(=O)(=O)c2cccc(C(=O)OCC(=O)NC3CC3)c2)cc1
-6.9%	0.2%	CCOCCCNC(=O)C(c1ccccc1)N(Cc1ccc2c(c1)OCO2)C(=O)CNC(C)=O (configuration not stated)
-23.1%	-13.0%	Cc1cccc2cc(-c3nc4ccc(C(=O)O)cc4[nH]3)c(=O)oc12
-0.2%	-0.5%	COc1ccc(Cc2nnc(SCC(=O)c3ccc(OC)cc3)o2)cc1
21.5%	2.1%	O=C(NCCc1csc(-c2cccnc2)n1)c1ccc(Cl)cc1
-1.0%	1.6%	CCCN1CCC(=NNc2ccc(S(=O)(=O)N3CCOCC3)cc2[N+](=O)[O-])CC1
16.7%	-1.4%	CCCCc1cc(=O)oc2c(C)c(OCC(=O)NCc3ccccn3)ccc12
13.3%	0.2%	CN(CC(=O)Nc1c(Cl)cccc1Cl)C(=O)CCC1CCCC1

Remaining list, next part:
FEN1 inhibitor	KAT2A inh	canonical_smiles
-0.2%	-14.0%	O=C(CN1C(=O)NC2(CCc3ccccc32)C1=O)NCC(F)(F)F (configuration not stated)
6.5%	3.0%	COc1cc(NC(=O)c2cccs2)c(OC)cc1NC(=O)CCn1nnc2ccccc21
-4.7%	0.2%	CNS(=O)(=O)c1ccc2c(c1)NC(=O)C1CCCN21 (configuration not stated)
-2.6%	0.6%	Nc1nonc1-c1noc(CCCOc2ccc(Cl)cc2Cl)n1
-22.6%	-1.4%	COc1ccc(S(=O)(=O)N(CC(=O)N/N=C/c2cccs2)c2cc(C)cc(C)c2)cc1OC
0.1%	-1.3%	O=C(NCc1cn2ccsc2n1)c1cccs1
2.3%	-9.8%	CC(C)(C)CN1CCC(n2nccc2NC(=O)c2ccccc2Cl)CC1
-11.1%	-5.4%	CCNC(=O)/C(C#N)=C/c1c(N2CCN(c3ccc(OC)cc3)CC2)nc2c(C)cccn2c1=O
-3.5%	-11.9%	Cc1cc(C)nc(NCCC(=O)O)n1
-14.0%	-5.9%	CCO/C=C1/C(=O)N(c2ccc(OC)cc2)C(=O)c2ccccc21
-14.1%	4.2%	O=C(CCC1N=C2c3ccccc3N=C(SCc3ccc(F)cc3)N2C1=O)NCc1ccco1 (configuration not stated)
-1.9%	-2.2%	CC(C)CCN1CC(C(=O)NCc2ccc(F)cc2)CC1=O (configuration not stated)
17.5%	1.3%	CC(=O)Nc1ccc(S(=O)(=O)NCC2CCC(C(=O)NC(C)c3ccccc3)CC2)cc1 (configuration not stated)
-3.4%	0.2%	COc1ncnc2c1N=C1CC(C)(C)CC(N)=C1S2
-14.5%	?	COc1cc(/C=C2\SC(N)=NC2=O)cc(Br)c1O

Gathered by group: the entries above with a COOH group.
FEN1 inhibitor	KAT2A inh	canonical_smiles
-23.1%	-13.0%	Cc1cccc2cc(-c3nc4ccc(C(=O)O)cc4[nH]3)c(=O)oc12
-3.5%	-11.9%	Cc1cc(C)nc(NCCC(=O)O)n1

Continued.
FEN1 inhibitor	KAT2A inh	canonical_smiles
-14.7%	-2.4%	CC(C)(C)NC(NC(=O)Cc1ccccc1)C(Cl)(Cl)Cl (configuration not stated)
-41.2%	0.2%	O=C(CSc1ccccc1)Nc1ccccc1C(=O)N1CCCC1
-17.9%	-8.6%	O=C(COC(=O)C1CCN(c2ccc(C(F)(F)F)cn2)CC1)NCc1ccc(Cl)cc1Cl
2.3%	-4.7%	Cc1ccc(C(=O)N[C@H](C(=O)N2CCN(c3ccccc3F)CC2)C(C)C)cc1
5.3%	-1.2%	O=C(CC1OC(=O)c2ccccc21)Nc1ccc(Cl)c(S(=O)(=O)N2CCCCC2)c1 (configuration not stated)
0.7%	-1.9%	COC(=O)c1cc(Br)c(=O)n(CCN2CCOCC2)c1
3.2%	1.3%	O=C(c1ccco1)N1CCN(c2nnc(-c3ccccc3)c3ccccc23)CC1
5.2%	-2.6%	COC(=O)CSc1cc(C)nc(SC)n1
2.7%	-4.8%	c1ccc2c(c1)nc(N1CCOCC1)c1ccccc12
-4.9%	-1.6%	COC(=O)CSc1ccnc2cc(Cl)ccc12
-1.1%	-5.6%	COc1ccc(/C=C(\NC(=O)c2cccs2)C(=O)NN)cc1OC
0.8%	-0.8%	O=C(c1cccs1)n1nc(-c2ccc(Cl)cc2)nc1NCc1ccco1
7.2%	2.6%	O=C(O)/C=C/C(=O)Nc1ccc(Oc2ccccc2)cc1
-7.1%	-1.5%	CCOc1ccc(C2C3=C(Nc4nc(N)[nH]c(=O)c42)c2ccccc2C3=O)cc1 (configuration not stated)
0.7%	-12.0%	CC(C)(C)C(=O)CN1C(=O)NC(C)(Cc2ccc3c(c2)OCO3)C1=O (configuration not stated)

Complete entries, looked up by structure. Order of values: FEN1 inhibitor	KAT2A inh
CC(C)(C)NC(NC(=O)Cc1ccccc1)C(Cl)(Cl)Cl (configuration not stated) across the screens: -14.7%	-2.4%
COC(=O)CSc1cc(C)nc(SC)n1 across the screens: 5.2%	-2.6%
c1ccc2c(c1)nc(N1CCOCC1)c1ccccc12 across the screens: 2.7%	-4.8%

Continued:
FEN1 inhibitor	KAT2A inh	canonical_smiles
nt	-12.7%&-28.7%	COCCN1C(=S)N[C@@H](c2cccc(F)c2)C(C(=O)OC)=C1C
nt	-14.0%	FC(F)(F)c1ccccc1-c1cncnc1Nc1ccccc1
2.7%	?	O=C1OCCN1C(=O)[C@H]1[C@H](c2ccccc2)C(c2ccc(F)cc2)=NN1c1ccccc1
-12.2%	-4.6%	COCCCNC(=O)c1cc(Sc2nnc(C)s2)nc2ccccc12
3.4%	-1.1%	CCCn1c(C)cc(C(=O)Cn2nnc3ccccc3c2=O)c1C
-9.8%	-19.5%	CN(C)S(=O)(=O)c1ccc2[nH]cc(/C=C/c3nc4ccccc4c(=O)n3-c3ccccc3)c2c1
nt	-18.7%&-7.4%	O=c1[nH]c2cc(Cl)c(Cl)cc2[nH]c1=O
0.0%	2.4%	C=CCn1c(Cc2csc(N)n2)nnc1SCC(=O)OCC
-3.2%	-10.2%	COc1ccc(NC(=O)COc2ccccc2)cc1Cl
-3.5%	-2.6%	COC(=O)c1cc(-c2ccc(Cl)cc2)n[nH]1
nt	-13.8%	COC1C(O)C(CO)OC1n1c(Br)nc2c(=O)[nH]c(N)nc21 (configuration not stated)
1.1%	-10.7%	CCN(CCCCCN(C)C)Cc1cc2ccccc2o1
-3.5%	0.6%	CC(=O)Nc1ccc(S(=O)(=O)NC(C)C(=O)OCC(=O)NC2CCCC2)cc1 (configuration not stated)
-3.2%	-8.7%	O=C(Nc1ccncc1)c1cc(S(=O)(=O)N2CCCCC2)ccc1Cl
-3.7%	-3.9%	COc1ccccc1NC(=O)Cc1noc(CSc2n[nH]c(N)n2)n1

Additional compounds.
FEN1 inhibitor	KAT2A inh	canonical_smiles
-9.0%	-5.0%	CC(=O)O/N=C/c1c(NCc2ccccc2)nc2c(C)cccn2c1=O
-3.2%	-1.1%	COc1cc(C(=O)Nc2ccc(S(=O)(=O)N3CCOCC3)cc2)c([N+](=O)[O-])cc1OC
-9.7%	-8.0%	O=C(NC(=S)NCCO)c1cn(-c2ccccc2)nc1-c1ccccc1
-18.2%	-4.6%	CSc1nc(-c2ccccc2)nc(C(Cl)Cl)n1
-4.9%	-1.5%	CCOC(=O)c1cc(C)[nH]c1C
34.2%[activator]	-27.1%	COc1ccccc1NC(=O)CCC(=O)OCc1ccc([N+](=O)[O-])cc1
-1.4%	-23.9%	O=C(Nc1ccccc1N1CCCC1)C1CCN(S(=O)(=O)c2ccccc2)CC1
-7.8%	-2.6%	CCc1ccccc1N(CC(=O)NCCSCc1ccco1)S(C)(=O)=O
2.0%	-3.6%	COc1ccc(S(=O)(=O)n2ccnc2)c2cccnc12
-8.4%	-1.1%	CCOC(=O)Cc1csc(NC(=O)CSc2nc3cccnc3n2CC)n1
4.8%	3.2%	CCC(=O)c1c[nH]c(C(=O)NCCCn2ccnc2)c1
-9.9%	-0.6%	COc1ccc(N(C(=O)Cn2nnc(-c3ccc(F)cc3)n2)C(C)C(=O)NC2CCCC2)cc1OC (configuration not stated)
3.7%	-4.6%	CN(CC(=O)Nc1cccc(F)c1)C(=O)COc1cccc2c1OC(C)(C)C2
-12.1%	-1.3%	CC1(C)CC2CC(C)(CN2C(=O)CN2C(=O)c3ccccc3C2=O)C1 (configuration not stated)
7.1%	1.0%	N=c1c2c(-c3ccccc3)c(-c3ccccc3)n(Cc3ccco3)c2ncn1CCO

The results go on.
FEN1 inhibitor	KAT2A inh	canonical_smiles
-7.3%	-0.7%	CCCC(NCC(=O)Nc1ccccc1C(=O)NC1CC1)c1ccccc1 (configuration not stated)
-14.1%	?	O=C1CCc2cc(NS(=O)(=O)c3ccccc3)cc3c2N1CC3
0.4%	-7.3%	COc1ccc(/C=C/C(=O)NCCOc2ccccc2OC)cc1
-19.2%	1.4%	COC(=O)c1cc(S(=O)(=O)NCC2CCN(Cc3ccc(Cl)cc3)CC2)c[nH]1
5.5%	-4.6%	CCOC(=O)c1csc(NC(=O)c2cc(OC)c(OC)c(OC)c2)n1
-16.1%	-6.4%	CCOCCCN1CN(S(=O)(=O)c2ccc(Cl)cc2)c2nc3ccccc3nc21
-8.9%	-9.5%	O=C(CN1C(=O)/C(=C/c2cccc(Br)c2)SC1=S)NC1=NCCS1
-11.2%	-5.9%	CCOC(=O)c1cc(C)sc1NC(=O)C(c1ccccc1)c1ccccc1
1.8%	-1.1%	Cc1c(-c2ccccc2)[n+](=O)c(-c2ccc(Cl)cc2)c(C)n1[O-]
-15.0%	-16.4%	O=C(Nc1ccc(Br)cc1)c1cccc(S(=O)(=O)Nc2cnc3ccccc3c2)c1
-8.7%	-5.5%	CC(C(=O)Nc1cccc(S(=O)(=O)N2CCOCC2)c1)N1CCN(c2ccc(F)cc2)CC1 (configuration not stated)
7.3%	-4.0%	CCOc1ccc(C(=O)C[n+]2ccccc2C)cc1
-4.6%	-12.1%	Cc1ccc(NC(=O)C(OC(=O)c2ccc(C=O)cc2)c2ccccc2)cc1Cl (configuration not stated)
0.7%	-10.4%	Cc1ccc(S(=O)(=O)c2c(N)n(NC(=O)c3ccco3)c3nc4ccccc4nc23)cc1
2.5%	-6.2%	CC(C(=O)OCc1nnc(-c2ccccc2)o1)N1C(=O)C2CCCCC2C1=O (configuration not stated)

The list goes on.
FEN1 inhibitor	KAT2A inh	canonical_smiles
-20.8%	-15.0%	COc1cccc(NC(=O)CN2C(=O)COc3ccc(Cl)cc32)c1
0.6%	-4.6%	O=C(/C=C\Nc1ccc(S(=O)(=O)Nc2ncccn2)cc1)c1ccccc1
6.4%	-9.7%	C(=N\Nc1nncc2ccccc12)/c1ccccc1
-5.6%	-1.3%	Cc1ccc(N2CN(Cc3cccnc3)CNC2=S)c(C)c1

Only part of the results is shown, and most or all hits are left out here.
